# Source: PubChem
# 26S disassembly = blocks ATP-dependent breakdown of the yeast 26S proteasome; 0.2% of 24,000 active; anti-FLAG beads, GFP-proteasome disassembly, flow cytometry; inhibition of disassembly, % (no concentration beside the values);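 active means above 40%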;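 further: plate controls were ATP control with full disassembly for no effect and ATP-gamma-S intact proteasomes for full effect; higher percent means more bead fluorescence retained so stronger block of disassembly; stock transfer was 100 nL into about 10 µL; wells with too few beads may also be inconclusive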
# VCAM-1 rise = boosters of cytokine-driven VCAM-1 levels – cell-based, plate reader, pooled HUVEC, TNFa stimulus (AID 455); HUVEC TNFa-induced VCAM-1 immunofluorescence, plate reader; numbers were filed only for top-ranked candidate wells; augmentation, % at 5 µM; 0.2% of 10,000 active;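 active means a compound raising TNF-alpha-driven VCAM-1 surface staining, with its hit status upheld on visual or statistical review; inactive means the rest, including hits rejected on review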;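 further: 0% = TNFa with vehicle and 100% = strongest image-checked hit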
# * hit, by the source's call; i = inactive; x = no result given.
SMILES	26S disassembly	VCAM-1 rise
O=C(CN(c1ccc(F)cc1)S(=O)(=O)c1ccc2c(c1)OCCO2)Nc1cccnc1	2.4	i
O=C(Nc1ccc(NC(=O)C2CCCN2C(=O)OCc2ccccc2)cc1)c1ccco1 (stereo unspecified)	1.5	x
CC(=O)NCCOc1cccc(OCCNC(C)=O)c1	-0.9	i
O=C(c1cccc2ccccc12)N1CCC(N2CCN(c3ccccc3)CC2)CC1	1.6	i
Cc1nn(CCCC(=O)N2CCc3ccccc3C2)c(=O)c2cc3sccc3n12	-0.8	x
O=C1C2CCCN2C(c2ccc(F)c(F)c2)N1c1cccc(Cl)c1 (stereo unspecified)	1.2	x
COc1ccc(C2C(C(=O)Nc3cc(C)on3)c3ccccc3C(=O)N2C)cc1 (stereo unspecified)	-1.2	x
CCOC(=O)c1sc2cccc(F)c2c1N	1.2	i
O=C(Nc1nccs1)C1CCCN(S(=O)(=O)c2cccc3cccnc23)C1 (stereo unspecified)	-4.1	x
c1ccc2cc3[nH]c(CN4CCCCC4)nc3cc2c1	0.2	x
COc1ccc(CCNc2oc(-c3ccccc3OC)nc2C#N)cc1	1.5	i
O=C(c1ccc(COc2ccccc2Cl)o1)N1CCN(c2ccccc2)CC1	-1.1	x
CS(=O)(=O)n1nc(OC(=O)c2cccc3ccccc23)cc1N	-0.3	x
CCc1nnc(NC(=O)CSc2nc(-c3ccc(OC)cc3)ns2)s1	-1.3	i
CN(CCCn1c(=S)[nH]c2ncccc2c1=O)Cc1ccccc1	-0.2	x
Cc1ccc2c(c1)NC(=O)C(CC(=O)NCCN(C)C)O2 (stereo unspecified)	1.1	x
CC(C)(C)c1ccc(S(=O)(=O)N2CCCCC2C(=O)NCc2ccccn2)cc1 (stereo unspecified)	-0.9	x
CC(C)n1nnnc1SCC(=O)Nc1ccccc1N1CCOCC1	3.7	i
CCCc1nc2ccccc2c2nc(N)nn12	-2.3	i
COc1cc(Nc2cc(C)nc3nc(C)nn23)cc(OC)c1OC	0.7	x

# The closing three entries of the part before lead into the next:
SMILES	26S disassembly	VCAM-1 rise
CC(C)n1nnnc1SCC(=O)Nc1ccccc1N1CCOCC1	3.7	i
CCCc1nc2ccccc2c2nc(N)nn12	-2.3	i
COc1cc(Nc2cc(C)nc3nc(C)nn23)cc(OC)c1OC	0.7	x
Cc1cc(C)nc(-n2nc(C)cc2NC(=O)c2ccc(Br)o2)n1	-18	i
COc1ccc(C2CC(c3ccc(Cl)cc3Cl)n3nc(N)nc3N2)cc1 (stereo unspecified)	0.1	i
COc1cccc(Cn2nnc(C(=O)NCc3ccc(F)cc3)c2N)c1	1.5	x
Cc1cc(C(=O)Nc2sc3c(c2C#N)CCCCC3)cs1	2.3	i
COc1ccc(C2N(c3cccc(Cl)c3)C(=O)C3CCCN32)cc1 (stereo unspecified)	0.1	x
CC1CCN(C(=O)C2CCCN(S(C)(=O)=O)C2)CC1 (stereo unspecified)	-0.5	x
O=C(NCc1ccccn1)c1ccc(/C=N/O)nc1	-1.5	x
CC(C)Cn1cc(C(=O)NCC2CCCO2)c2c3ccccc3n(C)c2c1=O (stereo unspecified)	-0.3	i
CCOc1ccc(-n2nc(C(=O)N3CCOCC3)c3ccccc3c2=O)cc1	0.1	x
Cc1ccsc1C(=O)Nc1ccc(C(=O)O)cc1	-1.1	x
CCn1c(C(=O)OC)cc2c1ccn2-c1ccc(F)cc1	2.5	i
Cc1cc2c(=O)n(CC(=O)NCC(=O)N3CCN(Cc4ccccc4)CC3)cnc2s1	2.6	x
CCc1ccc(NC(=O)CN(c2ccc3c(c2)OCO3)S(=O)(=O)c2c(C)noc2C)cc1	0.3	x
COc1ccc(CCNC(=O)C2CCN(Cc3nc(-c4cccc(Cl)c4)oc3C)CC2)cc1OC	1.6	i
O=C(CC(=O)N1CCN(c2ccccn2)CC1)Nc1ccc2nc3n(c(=O)c2c1)CCCCC3	0.2	x
CCOc1ccc(C2CC(c3cccc(OC)c3)Nc3ncnn32)cc1 (stereo unspecified)	-1.1	x
CC(=O)c1ccc(NC(=O)C2CC(c3ccc(F)cc3)=NO2)cc1 (stereo unspecified)	-0.2	x
O=c1c(CN2CCN(Cc3ccccc3)CC2)coc2ccc(Cl)cc12	2.2	i
Cc1oc(-c2ccccc2F)nc1CS(=O)(=O)CC(=O)NCc1ccco1	0.4	i
CCN(CC)S(=O)(=O)c1ccc2oc(SCc3ccc(F)cc3)nc2c1	-1.6	i

# (cont.)
SMILES	26S disassembly	VCAM-1 rise
Cc1cc(C(=O)NCc2ccc3c(c2)OCO3)n(-c2ccccc2)n1	-0.1	x
CC1=C(C(N)=O)C(c2cccs2)n2nc(-c3cccc(Cl)c3)nc2N1 (stereo unspecified)	-0.5	x
Cc1cccc(CS(=O)(=O)Cc2ccc(C(=O)NCCCN3CCOCC3)o2)c1	1.0	x
CCOCc1cc(C)[nH]c(=O)c1C#N	-0.6	x
O=C(CCn1c(=O)oc2ccccc21)N1CCN(C(c2ccccc2)c2ccccc2)CC1	-0.4	x
Cn1c(=O)[nH]c(=O)c2c1nc(CN(Cc1ccccc1)Cc1ccccc1)n2CCN1CCOCC1	-0.7	x
CCCc1cc(C(=O)Nc2sc3c(c2C(=O)OCC)CCCC3)no1	-0.3	x
Cc1noc(C)c1S(=O)(=O)N(CC(=O)N1CCn2c1nc1ccccc12)c1ccc(C(C)C)cc1	-0.1	x
O=C(CCn1c(=S)[nH]c2cc3c(cc2c1=O)OCO3)N1CCN(C2CCCCC2)CC1	0.4	i
O=C(CCN1C(=O)c2ccncc2C1=O)NCc1ccc(Cl)cc1	-0.3	x
CC1CCC(NC(=O)c2ccc(CS(=O)(=O)Cc3ccccc3F)o2)CC1 (stereo unspecified)	3.0	x
O=C(CSc1nc(-c2ccccc2)cs1)NC(=O)NCc1ccco1	-1.8	i
CCn1cc(C(=O)Nc2cccc(NC(C)=O)c2)c2cc(OC)c(OC)cc2c1=O	1.5	x
Cc1nc2sc(C(c3cccs3)N3CC(C)CC(C)C3)c(O)n2n1 (stereo unspecified)	-0.7	i
OC(CN1CCN(c2ccccn2)CC1)Cn1c2ccccc2c2ccccc21 (stereo unspecified)	0.9	i
Cc1ccccc1-c1nc(CN2CCC(C(=O)NCCC3=CCCCC3)CC2)c(C)o1	3.1	x
CN1CCN(C(=O)c2ccc3c(c2)N(Cc2ccc(Cl)cc2)C(=O)c2ccccc2S3=O)CC1 (stereo unspecified)	-5.3	x
CCOc1ccccc1C1C(C#N)=C(N)Oc2n[nH]c(CC)c21 (stereo unspecified)	0.2	x
COc1ccc(CCNS(=O)(=O)c2ccc3oc(C(=O)O)c(C)c3c2)cc1OC	-0.2	i
O=C1CCCN1CN(C(=O)c1ccccc1)c1ccc(F)cc1	-0.6	x

# Later entries
SMILES	26S disassembly	VCAM-1 rise
CN(C)C=Nc1nonc1N	-0.4	i
O=C(Cn1ncc2c1-c1ccccc1OC2)Nc1nc2ccccc2s1	-2.6	x
COc1cc(NC(=O)Cc2cccs2)ccc1-n1cnnn1	-0.5	i
O=C(CN(c1ccc(F)cc1)S(=O)(=O)c1ccc2c(c1)OCCO2)Nc1ccc2c(c1)OCO2	4.8	i
O=c1cc(O)nc(SCc2ccc(Cl)cc2)[nH]1	5.6	x
CS(=O)(=O)N(CC(=O)NCc1ccncc1)Cc1ccc(Cl)cc1	-0.4	i
O=C(O)CCCc1nc(-c2ccccc2)no1	-0.6	i
O=c1oc2ccccc2c2nccnc12	1.4	i
Cc1cc(C)nc(SCCS(=O)Cc2ccc(Cl)cc2)n1 (stereo unspecified)	0.3	i
Cn1c(=O)oc2cc(S(=O)(=O)N3CCC(C(=O)Nc4ccc(OC(F)(F)F)cc4)CC3)ccc21	1.0	i
Cc1onc(-c2c(Cl)cccc2Cl)c1C(N)=O	-0.8	i
Cc1ccc(NC(=O)c2noc3c2CCCCC3)cc1	-0.5	x
O=C(c1oc(=O)c2ccccc2c1-c1ccccc1)N1CCN(C2CCCCC2)CC1	0.3	x
O=C(CCN1C(=O)COc2ccccc21)NCCN1CCc2ccccc2C1	1.3	x
CCN(CC)C(=O)c1cn(C)c(=O)c2cc(OC)c(OC)cc12	-0.2	x
Cc1ccnc(NC(=O)CN(C)S(=O)(=O)c2cccc3nsnc23)c1	1.5	x
COc1cccc(C(c2nnnn2Cc2ccccc2)N2CCN(C(=O)c3ccco3)CC2)c1OC (stereo unspecified)	0.4	i
CCOC(=O)N1CCC(NC(=O)c2ccc(NC(=O)C3CCCO3)cc2)CC1 (stereo unspecified)	-1.9	x
O=C(NCc1ccccc1)C1C2C=CC3(CN(Cc4cccnc4)C(=O)C13)O2 (stereo unspecified)	0.5	x
CCOc1ccccc1OCCCCCc1c(C)n[nH]c1C	5.0	x

# Shown with each value named: part of the list above
> CCN(CC)C(=O)c1cn(C)c(=O)c2cc(OC)c(OC)cc12
  26S disassembly: -0.2	VCAM-1 rise: x
> Cc1ccnc(NC(=O)CN(C)S(=O)(=O)c2cccc3nsnc23)c1
  26S disassembly: 1.5	VCAM-1 rise: x
> COc1cccc(C(c2nnnn2Cc2ccccc2)N2CCN(C(=O)c3ccco3)CC2)c1OC (stereo unspecified)
  26S disassembly: 0.4	VCAM-1 rise: i

# (cont.)
# Values run as follows: 26S disassembly, VCAM-1 rise
> Nc1nonc1-c1noc(CCCCCN2C(=O)c3ccccc3C2=O)n1
  -0.4, i
> CCOC(=O)CSc1nnc(CNC(=O)c2cccs2)n1-c1cc(C)ccc1C
  -0.8, x
> Cc1noc(C(=O)N2CC3(C)CC2CC(C)(C)C3)c1Cl (stereo unspecified)
  1.8, x
> CCOC(=O)CC1=C(C(=O)OCC)C(c2ccc(C)o2)C(C#N)=C(N)O1 (stereo unspecified)
  1.1, i
> O=C(CCCn1c(=O)c2sccc2n(CC(=O)OCc2ccccc2)c1=O)NCc1ccco1
  0.6, x
> O=S(=O)(NCC(c1cccnc1)N1CCN(c2ccc(F)cc2)CC1)c1ccccc1 (stereo unspecified)
  11, x
> O=C(c1ccc(N2CCCCS2(=O)=O)cc1)N1CCN(c2ccc(N3CCOCC3)nn2)CC1
  -2.1, x
> O=C(NCCCN1CCCC1=O)c1cncc(Br)c1
  0.6, i
> CCOC(=O)C1=C(C)Nc2nnnn2C1c1cccc(OC)c1OC (stereo unspecified)
  -0.6, x
> CCOC(=O)N1CCN(C(=O)C2CCCN(S(=O)(=O)c3cccnc3)C2)CC1 (stereo unspecified)
  2.7, x
> CCc1ccc2[nH]c(=O)c(C(c3nnnn3CC3CCCO3)N3CCN4CCCC4C3)cc2c1 (stereo unspecified)
  26, i
> COc1ccc(N2C(=O)C3CCCN3C2c2cc(OC)c(OC)cc2OC)cc1 (stereo unspecified)
  1.2, x
> O=C(Nc1nnc(C2CCCCC2)s1)c1cccs1
  0.0, i
> CC(C)NC(=O)CSc1nc2ccccc2n1-c1ccccc1
  -3.9, i
> O=C(CN1CCCC1)N1CCCc2c1c(=O)oc1ccc(OCc3ccccc3)cc21
  -0.6, x

# (continued)
# Values run as follows: 26S disassembly, VCAM-1 rise
> O=C(NCCN1CCCC1)C1CCN(S(=O)(=O)N2CCC3(CC2)OCCO3)CC1
  1.9, x
> CC(C)CCOC(=O)C1C2C=CC3(CN(Cc4cccs4)C(=O)C13)O2 (stereo unspecified)
  -1.9, x
> CC1(C)NC(=O)N(CC(O)CN(Cc2ccccc2)Cc2ccccc2)C1=O (stereo unspecified)
  0.4, i
> O=S(=O)(c1ccc(Cl)s1)N1CCN(Cc2ccccc2)CC1
  1.7, x
> COc1ccc(Cn2c(=O)[nH]c3cc(C(=O)NCc4ccc5c(c4)OCO5)ccc3c2=O)cc1
  0.4, x
> c1ccc(-c2cc(N3CCCCC3)ncn2)cc1
  -1.6, i
> Cc1ccc(NC(=O)CN(C)S(=O)(=O)c2cccc3nsnc23)cc1Cl
  -1.3, i
> CN1CCN(c2cc3c(c4c2[nH]c2ccccc24)C(=O)CC(C)(C)C3)CC1
  -0.2, x
> Fc1ccccc1-c1nc(-c2ccccc2)no1
  2.1, i
> CCS(=O)(=O)N1CCC(C(=O)NCc2ccccc2OC)CC1
  0.7, x
> O=C(NCCN1CCOCC1)c1ccc(CS(=O)(=O)c2ccc(Cl)cc2)o1
  -1.1, x
> O=C(COC(=O)c1ccco1)NCc1cccs1
  2.3, i
> CC1CCCN(CCCNC(=O)CCn2nc(-c3ccccc3)ccc2=O)C1 (stereo unspecified)
  2.1, x
> COc1ccccc1C(=O)Nc1ccc(N2CCN(S(C)(=O)=O)CC2)cc1
  -1.3, i
> CCn1cc(C(=O)O)c(=O)c2cc(F)c(N3CCN(C(=O)Nc4ccccc4)CC3)cc21
  -2.9, i

# (more compounds)
# Values run as follows: 26S disassembly, VCAM-1 rise
> CCC1c2ccc(C)n2CCN1C(=O)Nc1ccccc1OC (stereo unspecified)
  4.1, i
> O=C(c1ccccc1)N1CC(COc2ccccc2)OC(c2ccco2)O1 (stereo unspecified)
  0.7, x
> COc1ccc2nc(NC(=O)C3CCCN(S(=O)(=O)c4cccc5nsnc45)C3)sc2c1 (stereo unspecified)
  24, i
> CCN(C(=O)CN1CCN(c2ccccc2OC)CC1)c1c(N)n(Cc2ccccc2)c(=O)[nH]c1=O
  0.6, i
> O=C(c1ccccc1)C1C(=O)c2ccccc2C1=O
  -1.8, x
> CCn1ncc(C2=NOC(C(=O)Nc3cccnc3)C2)c1C (stereo unspecified)
  2.3, x
> COc1cccc(N2CCN(C(=O)c3[nH]c(C)c(C(C)=O)c3C)CC2)c1
  -2.4, x
> CCN(CCNC(=O)C1CCN(Cc2nc(-c3cccc(Cl)c3)oc2C)CC1)c1ccccc1
  0.1, x
> CC1CCN(C(=O)CSc2nnc(Cc3cccn3C)n2-c2ccc(F)cc2)CC1
  -1.8, x
> COCCN1C(=O)c2oc3c(C)cc(C)cc3c(=O)c2C1c1cccc(O)c1 (stereo unspecified)
  0.1, i
> COc1ccc2c(c1)C1(C)CC(C)(C)N2C(=O)N1c1ccccc1 (stereo unspecified)
  -0.8, i

# Only part of the results is shown; count on the stated rates, not on these rows.
